MenB inh – Mtb MenB enzyme inhibition; P9WNP5; actives 0.43% (n = 100,000); inhibition, %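 (about 12 µg/mL by stock and volumes)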; MenB enzyme assay, absorbance read-out; some hits fall short of the stated cut; AID 540299;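 active means mean of two replicates above 30%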;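 further: 0% = no compound and 100% = wells with inactive enzyme; the first replicate is given; strong numbers were not always called active; inactives centre near -10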
Target sequence (P9WNP5 whole entry, looked up): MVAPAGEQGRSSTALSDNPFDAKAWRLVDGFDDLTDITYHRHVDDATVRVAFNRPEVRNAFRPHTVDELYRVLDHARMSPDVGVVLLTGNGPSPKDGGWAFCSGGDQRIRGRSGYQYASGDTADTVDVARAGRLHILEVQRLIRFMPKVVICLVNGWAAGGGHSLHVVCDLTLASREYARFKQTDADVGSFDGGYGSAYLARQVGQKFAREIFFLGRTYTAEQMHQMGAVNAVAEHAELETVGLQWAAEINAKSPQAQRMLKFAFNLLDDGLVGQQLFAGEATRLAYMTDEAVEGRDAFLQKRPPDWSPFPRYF
MbtI inh – inhibitors of Mycobacterium tuberculosis siderophore enzyme MbtI; purified MbtI enzyme, fluorescence intensity read-out; actives 0.89% (n = 100,000); P9WFX0; AID 493033; inhibition, %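 (about 17 µg/mL by stock and volumes)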;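 active means above 50% in both replicates, above 80% if mildly self-fluorescent; inactive means the rest, strongly fluorescent compounds included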;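 further: 0% = mean of negative and 100% = mean of positive controls; one replicate is shown; some compounds called inactive have numbers as strong as hits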
PV pol inh – inhibitors of poliovirus RNA polymerase binding and polymerization; P03300; poliovirus polymerase elongation, fluorescence polarization; hits give low values; % elongation, % (compound at 16.7 µg/mL); actives 0.66% (n = 150,000); AID 588519; in the data active means % elongation below about 90%; further: some results filed as inactive read as strong as hits
Target sequence (P03300 1749-2209 limits assumed): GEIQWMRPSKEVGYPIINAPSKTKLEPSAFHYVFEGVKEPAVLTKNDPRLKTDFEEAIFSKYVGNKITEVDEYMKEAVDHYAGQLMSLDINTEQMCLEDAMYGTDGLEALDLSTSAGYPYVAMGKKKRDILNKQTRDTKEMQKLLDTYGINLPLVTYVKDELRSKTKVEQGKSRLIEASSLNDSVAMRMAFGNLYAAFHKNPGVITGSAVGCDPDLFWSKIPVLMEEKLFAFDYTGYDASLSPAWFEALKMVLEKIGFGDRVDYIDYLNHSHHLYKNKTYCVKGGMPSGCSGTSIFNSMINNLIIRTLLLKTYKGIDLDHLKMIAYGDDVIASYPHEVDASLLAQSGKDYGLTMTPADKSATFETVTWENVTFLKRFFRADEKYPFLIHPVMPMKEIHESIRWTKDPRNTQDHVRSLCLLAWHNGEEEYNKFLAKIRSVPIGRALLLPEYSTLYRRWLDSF
PV pol inh intensity – also measured in PV pol inh; calls as there; % elongation; measured here: total intensity read-out; formula for this scale not given here;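 total fluorescence in place of polarization; lower means less elongation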
An asterisk follows results filed as active; i = inactive; / = not tested or not shown.

cpd	SMILES	MenB inh	MbtI inh	PV pol inh	PV pol inh intensity
1	O=C(Cc1ccc(Cl)cc1)n1cc(Cl)cn1	-74	-3	102	115
2	O=C(Cn1ncc2c3ccccc3n(Cc3ccccc3)c2c1=O)N1CCOCC1	-1	39	102	106
3	CCN(Cc1nc(-c2ccc(OC)c(OC)c2)no1)C(=O)Cc1cccc2ccccc12	-58	11	101	104
4	CC(O)CNC(=O)c1sc2ccccc2c1Cl (stereo unspecified)	/	1	103	110
5	CN(C)C(=O)Oc1ccc2cc(-c3ccccc3)c(=O)oc2c1	-11	104	103	103
6	O=C(O)c1ccc2c(c1)CCN2	15	9	101	93
7	CC(C)N(C(=O)CSc1nnc(-c2cccnc2)n1Cc1ccccc1)C(C)C	-8	-6	103	104
8	Cc1cc2nc[nH]c2cc1C	-13	7	/	/
9	O=C(NCc1ccc(F)cc1)NC1CC(=O)N(c2ccccc2)C1 (stereo unspecified)	-1	-4	96	101
10	CCC(=O)Nc1ccccc1Cl	-21	-16	100	104
11	NS(=O)(=O)c1ccc(NC(=O)CSC2=NC(=O)C(Cc3ccccc3)C(=O)N2)cc1 (stereo unspecified)	5	-2	102	103
12	O=C1c2cccc3c(N4CCNCC4)ccc(c23)C(=O)N1c1ccc(Cl)cc1	-90	11	78	190
13	O=C1CCCC2=C1C(c1ccc(Cl)cc1)n1c(s/c(=C\c3cccnc3)c1=O)=N2 (stereo unspecified)	4	0	107	113
14	CC(C)(C)C(=O)Nc1c[nH]c(=O)[nH]c1=O	-29	/	104	93
15	CN(C(=O)CSc1nnc(-c2ccccc2)o1)c1c(N)n(Cc2ccccc2)c(=O)[nH]c1=O	-25	-6	/	/
16	O=c1[nH]c2ccccc2c2nncn12	-3	118	102	101
17	CSC1=NCCN1C(=O)COc1ccccc1	-9	-4	101	101
18	CN(C)/C=C/C=C1C(=O)CC(C)(C)CC1=O	i	16	101	105
19	CSc1ncc(C(=O)OCc2ccc(C#N)cc2)n1-c1ccccc1	-2	-3	103	104
20	O=C(O)c1ccnc(Cl)c1	-9	-11	102	104
21	CCN(CC)CCCNC1=NCC(C)S1 (stereo unspecified)	/	-8	101	96
22	O=C(O)CNC(=O)COc1ccc(-c2ccccc2)cc1	4	/	101	100
23	CCn1cc(C(=O)NCc2ccc(C)o2)c2cc(OC)c(OC)cc2c1=O	-11	16	104	102
24	CC(C)C(=O)OCc1cc(=O)n2ccsc2n1	-5	96	103	103
25	CCn1cc(C(=O)N(C)Cc2ccccc2)c2cc(OC)c(OC)cc2c1=O	9	-1	99	102
26	CCOC(=O)c1cnc2cc(C(F)(F)F)ccc2c1Nc1c(C)n(C)n(-c2ccccc2)c1=O	1	2	/	/
27	CCOc1ccc(NC(=O)C2CCN(C(=O)Cc3ccccc3)CC2)cc1	-28	4	103	101
28	COc1ccc(/C=c2\[nH]c(=O)/c(=C\c3ccc(OC)cc3)[nH]c2=O)cc1	-5	/	108	111
29	CCSc1nc2ccccc2c(=O)n1-c1c(C)n(C)n(-c2ccccc2)c1=O	-6	1	108	108
30	CC(=O)NCc1cccs1	-6	-8	102	101
31	Cc1ccc(C(=O)NCCc2cccs2)cc1	0	-5	102	102
32	Cc1cc(NC(=O)c2c(F)cccc2Cl)no1	/	-7	101	99
33	COc1ccc(N=CN(C)C)cc1OC	-4	-20	100	101
34	CCC(C)c1ccccc1N=Cc1ccsc1 (stereo unspecified)	/	-9	103	107
35	Cc1c(C(=O)N2CCCC2)oc2c1-c1nn(CC(=O)NC(C)c3ccc4c(c3)OCCO4)cc1CC2 (stereo unspecified)	-23	-49	101	104
36	COc1ccc(CCNc2nccc(=O)[nH]2)cc1OC	-6	/	101	103
37	O=C(CCS(=O)(=O)Cc1ccccc1)n1nnc2ccccc21	-26	-5	102	101
38	C1=CC2CC1CC2CNCc1ccco1 (stereo unspecified)	0	/	104	104
39	N#CCSC1=N/C(=C/c2ccco2)C(=O)N1c1ccc(OC(F)F)cc1	-155	-1	143	143
40	N#Cc1c(-c2ccccc2)c(C#N)c2sc3ccccc3n2c1=O	/	0	101	103
41	O=C(Cc1cn2ccsc2n1)Nc1ccc(Cl)cc1	-2	-12	105	108
42	CCN1CCCC1CNC(=O)C1(O)c2cc(Br)ccc2NC(=O)N1c1ccc(Cl)cc1 (stereo unspecified)	-4	0	101	103
43	O=c1c2ccccc2nnn1CSc1nnc(-c2ccco2)o1	-15	1	100	90
44	CCCCCC1CC(O)C=C(C)C1C(=O)OC (stereo unspecified)	-44	-16	99	98
45	Cc1[nH]c2ccc(-c3nnc(SCC(=O)N4CCCC4)o3)cc2c1C	-44	5	104	100

Single records (already shown). Screens in order: MenB inh	MbtI inh	PV pol inh	PV pol inh intensity
CCC(C)c1ccccc1N=Cc1ccsc1 (stereo unspecified) in the list: /	-9	103	107
CN(C)C(=O)Oc1ccc2cc(-c3ccccc3)c(=O)oc2c1 in the list: -11	104	103	103
Cc1ccc(C(=O)NCCc2cccs2)cc1 in the list: 0	-5	102	102
CCOC(=O)c1cnc2cc(C(F)(F)F)ccc2c1Nc1c(C)n(C)n(-c2ccccc2)c1=O in the list: 1	2	/	/

Other entries:
cpd	SMILES	MenB inh	MbtI inh	PV pol inh	PV pol inh intensity
46	Cc1cc(C)cc(N2C(=O)/C(=C\c3ccc(N4CCCCC4)cc3)C(=O)NC2=S)c1	-40	53	102	102
47	CCS(=O)(=O)c1ccc(OC)c(-n2c(O)c[nH]c2=O)c1	-45	4	105	102
48	O=C1CN(S(=O)(=O)c2ccc(F)cc2)CCN1	-8	-19	105	97
49	Cc1cc(C)cc(NC(=O)CSCc2cnn(-c3ccccc3)c2-n2cccc2)c1	-28	2	106	104
50	C=C(C)CS(=O)(=O)c1ccccc1	12	/	104	95
51	CN(Cc1nc(-c2ccccc2)cs1)C(=O)NC1(c2ccccc2)CC1	-38	/	103	105
52	CCOC(=O)C(C)Sc1ncnc2c1oc1ccccc12 (stereo unspecified)	-19	-1	99	104
53	COCc1ccc2oc(C(=O)O)cc2c1	12	-2	101	106
54	C=CCn1c(Cc2cccs2)nnc1SCC(=O)Nc1ccc(C)c(C)c1	5	-13	101	103
55	c1nc(N2CCCC2)c2c3c(sc2n1)CCC3	-16	-1	103	102
56	CCC1Cc2c(nc(N)c3c(N)nc(N(CC)CC)c(C#N)c23)O1 (stereo unspecified)	-86	-153	103	110
57	NNc1ncnc2cc(-c3ccc(Br)cc3)sc12	-2	-8	99	101
58	O=C1NC2(CCCCC2)N(C(=O)c2cccs2)C2=C1CCCC2	-5	21	100	102
59	N#Cc1cccc(Cn2nnc(-c3ccccc3)n2)c1	-2	-15	101	105
60	CCCn1c(=S)[nH]c2cnn(C)c2c1=O	7	22	103	104
61	CC1CCN(C(=O)C2c3ccccc3Oc3ccccc32)CC1	-24	-4	101	97
62	COC(=O)c1ccc(Oc2nc(N3CCCCC3)nc(N3CCCCC3)n2)cc1	1	-8	102	103
63	O=C(Cc1ccccc1)Oc1ccc(N=Cc2cccs2)cc1	2	/	108	108
64	CC(Sc1ccccc1)C(=O)Nc1ccc(CC#N)cc1 (stereo unspecified)	-5	/	113	108
65	CC(C)n1c(C(F)(F)F)nc2ccccc21	-11	-9	104	100
66	COc1ccc(C(=O)NCc2ccc3c(c2)CCO3)cc1	-10	-8	102	99
67	CCCCCn1c(=O)c2ccccc2n2c(Cn3cc(S(=O)(=O)N4CCCC4)ccc3=O)nnc12	-18	13	102	108
68	O=C(CCN1C(=O)c2cccnc2Sc2ccccc21)NCc1ccc2c(c1)OCO2	-23	-21	103	102
69	O=C(O)c1ccc(Cn2nc(N3CCCCC3)ccc2=O)o1	8	7	103	100
70	CCC(C)(C)NC(=O)c1cccc(NC(=O)C(C)C)c1	9	2	99	101
71	CCOC(=O)C1CC2CN(C(=O)c3ccccc3)CC(C1)C2=O (stereo unspecified)	-22	-6	103	102
72	CCOC(=O)N/N=C/c1cn(-c2ccccc2)nc1-c1cc2ccccc2o1	-32	25	106	108
73	Cn1nnc(-c2ccc(OCc3ccccc3F)cc2)n1	-33	-6	102	107
74	CC(C1CC2CCC1C2)n1c(SCC(=O)c2ccc[nH]2)nnc1-c1ccco1 (stereo unspecified)	-56	15	108	114
75	Cc1ccnc(N2C(=O)c3ccccc3C2Nc2ccc(Br)c(C)c2)c1 (stereo unspecified)	1	-13	104	107
76	Cc1cc(=O)oc2cc(OC(=O)C(C)C)ccc12	-9	-186	102	102
77	O=c1c2ccccc2c2n[nH]c(O)c3ccc(=NC4CCCCC4)c1c32	-7	2	101	97
78	O=C(Nc1ccc(N2CCOCC2)cc1Cl)C1CCN(C(=O)OCc2ccccc2)CC1	-28	-7	99	108
79	O=S(=O)(Nc1cc(C(F)(F)F)ccc1N1CCCC1)c1ccc2c(c1)OCCCO2	2	7	102	95
80	C=CCn1c(=S)n(CC=C)c2ccccc21	-32	-4	102	105
81	NS(=O)(=O)c1ccc(NC(=O)CN2C(=O)S/C(=C\C(=O)Nc3ccc(F)cc3)C2=O)cc1	-19	-15	104	107
82	Nc1ccccc1C(=O)Nc1cc(C(=O)O)cc(C(=O)O)c1	-8	/	96	103
83	Cc1ccc(S(=O)(=O)N2CCOCC2)cc1C(=O)NCC1CCCCC1	-8	-6	107	109
84	O=C(Cc1c[nH]c2ccccc12)NCC(c1ccco1)N1CCCCC1 (stereo unspecified)	-1	-5	104	108
85	O=C(Oc1ccc(OC(=O)c2ccccc2)cc1)c1ccccc1	8	-4	99	102
86	CCOC(=O)C1=C(C)NC(C)=C(C(=O)OCC)C1C(=O)OCC(=O)c1cc(C)n(Cc2cccs2)c1C	-21	185	94	108
87	O=C(OC(C(=O)NCc1cccs1)c1ccccc1Cl)c1ccco1 (stereo unspecified)	21	2	101	106
88	Cc1ccc(COc2ccc(/C=C3/C(=N)N4C=CSC4=NC3=O)cc2Br)cc1	-3	-7	103	111
89	CSc1ccc2nnc(CCNC(=O)c3ccccc3)n2n1	-24	4	105	107
90	COc1ccc(CNC(=O)C2=Cc3sc(C)c(C)c3CS2)cc1	-25	40	103	107

Taken from above (3 entries):
cpd	SMILES	MenB inh	MbtI inh	PV pol inh	PV pol inh intensity
16	O=c1[nH]c2ccccc2c2nncn12	-3	118	102	101
17	CSC1=NCCN1C(=O)COc1ccccc1	-9	-4	101	101
18	CN(C)/C=C/C=C1C(=O)CC(C)(C)CC1=O	i	16	101	105

(cont.)
cpd	SMILES	MenB inh	MbtI inh	PV pol inh	PV pol inh intensity
91	O=C(CN1CCN(Cc2ccccc2)CC1)NCCN1C(=O)S/C(=C\c2ccccc2Cl)C1=O	-15	14	105	107
92	O=C(COc1ccccc1F)OCCN1CCCC1	/	-6	101	107
93	CC1CN(C(=O)Cn2cc(SCC(N)=O)c3ccccc32)CC(C)O1 (stereo unspecified)	-23	-12	106	100
94	Ic1c(-c2ccccc2)noc1-c1ccccc1	-58	-13	101	103
95	CCOC(=O)c1c(C)n(C2CCCCC2)c2ccc(O)cc12	-8	/	107	107
96	CC1(C)CC2(CCO1)Cc1ccccc1C2=O (stereo unspecified)	-20	4	103	103
97	CCc1ccc(NC(=O)Cn2nc(C(F)(F)F)c3c2CCC3)cc1	-11	-8	103	103
98	NC(=O)c1ccccc1N=c1cc(-c2ccccc2)oc2ccc(Cl)cc12	6	2	101	105
99	O=C(c1nc(-c2ccc(Cl)cc2)n2c1CCCCC2)N1CCCC1	-20	5	100	103
100	CCOC(=O)c1c(C)c(C(=O)NCc2ccco2)c(C)n1C	-2	4	100	103
101	COc1ccccc1CNC(=O)CN(c1ccccc1)C(C)C	-11	-2	95	100
102	CCC(=O)Nc1cc(C(=O)O)ccc1C	-24	-12	102	102
103	O=C1C=CC(=O)c2c1ccc1c2ccc2ccccc21	2	/	101	101
104	NC(N)=Nc1nc(CSCC/C(N)=N/S(N)(=O)=O)cs1	0	0	99	102
105	O=C(Cn1cnc2c(nnn2Cc2ccccc2F)c1=O)Nc1ccc2c(c1)OCCO2	-46	-8	101	96
106	CN1C(=O)CCSc2ccccc21	7	-4	100	102
107	O=C(Nc1cccc(C(F)(F)F)c1)N1CCOC12CCCCC2	8	-14	107	108
108	CCNC(=O)c1cc2c(C)nn(-c3ccc(Cl)cc3)c2s1	-10	46	96	94
109	CC1=C(C#N)C(c2ccccc2)C(C#N)=C(C)N1	3	-16	102	104
110	CCN(CC)CCNc1nc2ccccc2n1C	-10	2	101	104
111	CCN(CC)S(=O)(=O)c1cc(C(=O)OC(C)C(=O)NC2CC2)ccc1C (stereo unspecified)	-8	-1	105	107
112	Cc1cc(CNCC(c2ccco2)N2CCCCC2)c(C)n1-c1ccnn1C(C)C (stereo unspecified)	-7	-2	98	104
113	COc1ccccc1N1CCN(C2CCCC(C)C2)CC1 (stereo unspecified)	-21	-18	100	103
114	NNC(=O)CCCCn1c(=S)[nH]c2ccsc2c1=O	-29	1	103	102
115	O=C(/C=C/c1cccs1)Oc1ccc2c(c1)OCO2	-11	-2	109	106
116	O=C(NCC1CC1)NC(=O)c1c(Cl)cccc1Cl	-7	8	101	96
117	O=C(C1Cc2ccccc2CN1S(=O)(=O)c1ccc(F)cc1)N1CCOCC1 (stereo unspecified)	-26	-5	101	98
118	O=C(CS(=O)(=O)c1ccccc1)Nc1cccc(C(F)(F)F)c1	-2	4	100	104
119	Cc1ccc(C(=O)N(CC(C)C)C2CCS(=O)(=O)C2)cc1C (stereo unspecified)	3	-5	98	106
120	COc1ccc(-n2nnnc2SCCCC(=O)c2ccccc2)cc1	-37	-11	103	105
